Screens from PubChem.
Vif inh: HIV Vif inhibition; HEK293T cells, Vif self-association by quenched fluorescence, imaging, 24 h; inhibition, % at 7.49 µM; 0.35% of 340,000 active; AID 602346; in the data active = inhibition above about 50%, passing the limit was not always enough; also: some results filed as inactive read as strong as hits
NR2E3 ag-1: activates human photoreceptor nuclear receptor NR2E3 | Q9Y5X4 | GST-NR2E3/biotin-RetCOR TR-FRET, 1536-well | inhibition of corepressor binding, % at 4.78 µM | 0.12% of 320,000 active | AID 2300;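 active = percent inhibition above the cutoff of mean plus 3 SD of all tested compounds, set per screening campaign, cut at about 20% in these data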;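 also: 0% = DMSO wells and 100% = biotin wells as full block of FRET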
Target sequence (Q9Y5X4 whole entry, looked up): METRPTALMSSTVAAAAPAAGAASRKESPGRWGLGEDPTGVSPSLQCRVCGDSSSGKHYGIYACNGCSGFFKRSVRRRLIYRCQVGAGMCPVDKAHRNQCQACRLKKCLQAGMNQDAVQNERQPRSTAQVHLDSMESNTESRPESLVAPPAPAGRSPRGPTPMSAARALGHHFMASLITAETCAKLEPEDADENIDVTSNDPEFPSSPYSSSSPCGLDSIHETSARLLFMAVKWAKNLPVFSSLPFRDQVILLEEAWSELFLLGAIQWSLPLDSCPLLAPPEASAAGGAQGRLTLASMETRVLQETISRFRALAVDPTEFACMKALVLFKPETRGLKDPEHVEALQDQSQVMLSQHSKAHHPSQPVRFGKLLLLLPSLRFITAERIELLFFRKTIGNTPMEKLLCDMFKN
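Material: NR2E3–RetCOR corepressor complex / Incubation: Compound–protein incubation for 5 h at 4 °C / Dosing: compound at 4.8 µM, single dose / Detection: time-resolved FRET / Benchmarks: high control biotin, low control 0.6% DMSO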
aDG glyco up: alpha-DG glycosylation activation; 0.22% of 360,000 active; activation, % at 10 µM; Pro5-aDG cells, alpha-DG glycosylation AlphaScreen (IIH6); 0% Pro5, 100% B10-LARGE cell signal;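 active = activation of at least 8% versus controls, or a plate z-score of at least 8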;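 also: Pro5 are CHO cells carrying HIG-tagged alpha-DG that lacks glycosylation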
iPSC survival up: increases survival of single human iPS cells | survival enhancement, % at 20 µM | hiPSC single-cell survival, ATPlite luminescence; 100% = ROCK inhibitor wells, 0% = DMSO | 0.044% of 360,000 active; in the data active = survival enhancement above about 18%;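 also: cells exposed to compounds for 16 hours before the ATP read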
Exocytosis inh: blocks lytic granule exocytosis; TALL-104 LAMP-1 surface exposure, flow cytometry; cells stimulated with thapsigargin and PMA; inhibition, % at 10 µM; 0.66% of 360,000 active; AID 651702;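 active = inhibition above about 55%, limit read from the data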
PDI inh: blocks human protein disulfide isomerase activity; P07237; PDI insulin aggregation turbidity, A650, 90 min; inhibition, % at 10 µM; 0.052% of 350,000 active; AID 588391;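 active = mean inhibition across replicates of 30% or more, whatever share of single replicates reach that level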;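 also: absorbance from insulin aggregation driven by PDI reduction with DTT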
CaV13 FRET inh: Disruptors of the CACNA1D IQ motif to Ca2+-dependent inactivation inhibitor domain association, primary screening, Förster resonance energy transfer in intact living …. HEK cells, CFP/YFP FRET ICDI-IQ, plate reader, 10 min; percent FRET-ratio fall versus neutral wells. inhibition, % at 12.3 µM. 0.098% of 340,000 active;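 active = mean replicate inhibition of at least 30% and at least 1% of replicates passing that level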;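 also: 0% = median of the neutral control wells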
NR2E3 ag-2: activates human NR2E3 receptor; CHO-S Gal4-NCOR/VP16-NR2E3 two-hybrid, luciferase; AID 602229; Q9Y5X4; inhibition of corepressor binding, % at 3.98 µM; 0.35% of 360,000 active;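 active = inhibition above the mean of all tested compounds plus 3 SD, cut at about 70% in these data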;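 also: 0% = DMSO with NR2E3 transfected cells and 100% = cells lacking NR2E3 construct; higher means lower luciferase signal from less NR2E3 corepressor binding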
An asterisk follows results filed as active; / = no result given; & = joins results of further samples.

cpd | Structure | Vif inh | NR2E3 ag-1 | aDG glyco up | iPSC survival up
1 | O=C(CCS(=O)(=O)c1ccccc1)Nc1cccc(-c2nc3ccccc3s2)c1 | -14 | 2 | 0.4 | -3.0
2 | CN1C(C(=O)Nc2ccccn2)=C(O)c2sccc2S1(=O)=O | 9 | 4 | -0.4 | 0.2
3 | Fc1ccc(-[n+]2nc(Nc3ccccc3)sc2-c2c3ccccc3cc3ccccc23)cc1 | / | 0 | -0.6 | -4.8
4 | Cc1ccc(C(=O)/C=C/Nc2ccccn2)cc1 | 13 | 1 | -0.1 | -5.5
5 | N[C@@H](Cc1ccc(O)c(O)c1)C(=O)O | 24 | / | -0.2 | -0.3
6 | O=C(O)CC(O)C(=O)O (configuration not stated) | 1 | 3 | 0.0 | -2.5
7 | Cc1nnc(NC(=O)CCS(=O)(=O)c2ccccc2)s1 | -12 | 5 | 0.1 | -0.5
8 | COc1ccc(NS(=O)(=O)c2cc(C)ccc2NC(=O)c2cc(C)oc2C)cc1 | 22 | 2 | -0.1 | -2.7
9 | O=C(Nc1ccccc1C(=O)Nc1nnc(C(F)(F)F)s1)c1ccccc1Cl | -40 | 2 | 0.1 | 0.0
10 | CC1CCCC(NC(=S)Nc2ccc(SC(F)F)cc2)C1C (configuration not stated) | 7 | -2 | 1.0 | -1.5

cpd | Exocytosis inh | PDI inh | CaV13 FRET inh | NR2E3 ag-2
1 | 38 | -5 | -15 | -127
2 | -2 | 6 | -5 | -12
3 | -1 | -5 | -8 | -8
4 | -1 | 0 | / | -64
5 | -5 | -5 | -6 | -4
6 | -3 | 1 | / | -16
7 | -5 | 1 | -2 | -20
8 | 16 | -1 | -5 | 10
9 | 17 | -37 | -6 | 100*
10 | 0 | -1 | 0 | 21

Remaining list, next part:
cpd | Structure | Vif inh | NR2E3 ag-1 | aDG glyco up | iPSC survival up
11 | O=C(Nc1ccccc1C(=O)Nc1nnc(C(F)(F)F)s1)c1ccccc1 | -16 | 2 | 0.2 | -0.2
12 | COc1ccc2c(c1)c(CC(=O)O)c(C)n2C(=O)c1ccc(Cl)cc1 | -1 | 1 | 0.1 | 2.5
13 | COc1cccc2c1C(=O)c1c(O)c3c(c(O)c1C2=O)C[C@](O)(C(C)=O)C[C@H]3O[C@@H]1C[C@@H](N)[C@@H](O)[C@@H](C)O1 | -5 | -1 | -0.4 | -5.1
14 | Cc1ccc(C)c(N2CCN(C(=O)CCCn3ncn4c(cc5occc54)c3=O)CC2)c1 | -5 | 0 | 0.3 | -0.4
15 | C[C@H]1O[C@@H](O[C@H]2[C@@H](O)C[C@H](O[C@H]3[C@@H](O)C[C@H](O[C@H]4CC[C@@]5(C)[C@H](CC[C@@H]6[C@@H]5C[C@@H](O)[C@]5(C)[C@@H](C7=CC(=O)OC7)CC[C@]65O)C4)O[C@@H]3C)O[C@@H]2C)C[C@H](O)[C@@H]1O | -2 | 0&1 | 0.0 | -3.4
16 | COc1ccc(N(CC(=O)N2CCCCCC2)S(C)(=O)=O)cc1Cl | -2 | 1 | -0.2 | -0.2
17 | COCCCn1c(N)c(-c2nc3ccccc3n2C)c2nc3ccccc3nc21 | 2 | -2 | 0.1 | -1.5
18 | CCOC(=O)CSC1=NC(=O)/C(=C/c2ccc(OC)cc2)S1 | -1 | 1 | -0.4 | -2.6
19 | COc1nc(/C(N)=N/O)nc(N2CCCCC2)n1 | / | -1 | 1.1 | -0.3
20 | CC1(C)CC(=O)C(=Cc2cn(CCC#N)nc2-c2ccc(Cl)cc2)C(=O)C1 | 29 | 4 | 0.9 | 0.7

cpd | Exocytosis inh | PDI inh | CaV13 FRET inh | NR2E3 ag-2
11 | 4 | 4 | -21 | 72*
12 | -5 | 9 | -5 | -11
13 | 27 | 5 | -7 | -85
14 | 1 | -5 | -2 | 10
15 | -3 | 4 | -5 | -23
16 | 1 | -3 | -2 | -18
17 | -4 | -1 | -33 | -20
18 | 4 | 6 | / | -177
19 | 3 | -3 | -5 | -14
20 | 74* | -2 | -5 | -30

Part of the list above, as labelled records.
#14 Cc1ccc(C)c(N2CCN(C(=O)CCCn3ncn4c(cc5occc54)c3=O)CC2)c1
- Vif inh: -5
- NR2E3 ag-1: 0
- aDG glyco up: 0.3
- iPSC survival up: -0.4
- Exocytosis inh: 1
- PDI inh: -5
- CaV13 FRET inh: -2
- NR2E3 ag-2: 10
#18 CCOC(=O)CSC1=NC(=O)/C(=C/c2ccc(OC)cc2)S1
- Vif inh: -1
- NR2E3 ag-1: 1
- aDG glyco up: -0.4
- iPSC survival up: -2.6
- Exocytosis inh: 4
- PDI inh: 6
- CaV13 FRET inh: /
- NR2E3 ag-2: -177
#19 COc1nc(/C(N)=N/O)nc(N2CCCCC2)n1
- Vif inh: /
- NR2E3 ag-1: -1
- aDG glyco up: 1.1
- iPSC survival up: -0.3
- Exocytosis inh: 3
- PDI inh: -3
- CaV13 FRET inh: -5
- NR2E3 ag-2: -14
#20 CC1(C)CC(=O)C(=Cc2cn(CCC#N)nc2-c2ccc(Cl)cc2)C(=O)C1
- Vif inh: 29
- NR2E3 ag-1: 4
- aDG glyco up: 0.9
- iPSC survival up: 0.7
- Exocytosis inh: 74*
- PDI inh: -2
- CaV13 FRET inh: -5
- NR2E3 ag-2: -30

More entries
cpd | Structure | Vif inh | NR2E3 ag-1 | aDG glyco up | iPSC survival up
21 | COC(=O)c1ccc2c(c1)C(C)(C)C(/C=C/c1ccccc1O)=[N+]2C | -2 | 7 | -0.5 | 1.2
22 | Cc1nn(Cc2ccc(Cl)cc2Cl)c(C)c1NC(=O)NC12CC3CC(CC(C3)C1)C2 | -21 | 0 | 0.6 | -4.3
23 | O=C(NC1CCCCC1)C(c1ccco1)N(CCc1ccccc1)C(=O)C(F)(F)F (configuration not stated) | -2 | 3 | 0.0 | -2.5
24 | Nc1nc2ccc(S(=O)(=O)N3CCCCC3)cc2s1 | -7 | 1 | 1.0 | 0.7
25 | CC(=O)c1cccc(N(C(=O)c2ccccn2)C(C(=O)NC2CCCCC2)c2cccs2)c1 (configuration not stated) | -2 | 6 | 0.5 | -0.5
26 | O=C(Nc1nc(-c2ccccc2)cs1)c1ccc2c(=O)n3c(nc2c1)CCCCC3 | -1 | 4 | -0.2 | 2.8
27 | Cc1nn(-c2ccccc2)c(C)c1NC(=O)COc1ccc2ccccc2c1 | 1 | 1 | 0.0 | -0.4
28 | Clc1ccc(CN(Cc2ccc(Cl)cc2)c2nn[nH]n2)cc1 | 2 | 0 | -0.4 | 0.3
29 | CC(NCCN(C)C)C1CCC2C3CCc4cc(O)ccc4C3CCC12C (configuration not stated) | 0 | / | -0.1 | -4.2

cpd | Exocytosis inh | PDI inh | CaV13 FRET inh | NR2E3 ag-2
21 | 32 | 8 | -10 | 39
22 | 3 | 9 | -4 | 19
23 | -3 | -1 | -3 | 2
24 | 5 | 24 | -8 | -14
25 | -5 | -5 | -7 | -20
26 | 97* | -7 | -4 | -30
27 | -7 | 0 | -7 | 29
28 | 4 | -39 | -5 | -17
29 | 23 | 12 | -6 | 38

These rows are one share of the data; the hit share may differ from the screen's.
